# Compound activity: PubChem BioAssay, National Center for Advancing Translational Sciences (NCATS)
# TsaE inh = inhibitors of E. coli YjeE (TsaE); hit rate 0.05% among 71,000; purified YjeE, fluorescence polarisation of a bound ADP probe; Potency, µM; AID 605; P0AF67; active = well fitted falling curve; inconclusive = weaker or top-dose-only fall, or a rising curve; inactive = flat or poorly fitted curve;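 further: top concentration of the series not given in the record; excess ADP was the control for the full effect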
#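 Purified YjeE (10 uM) with BODIPY Texas Red-labeled ADP probe (2 uM); compounds pin-transferred, 15 min at room temperature. Binding inhibition read as decreased fluorescence polarization; ADP titration as control.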
# Bst PK mod = pyruvate kinase (B. stearothermophilus) modulation | partly purified Bacillus stearothermophilus pyruvate kinase, luminescence ATP production; ribose 5-phosphate activator present at AC10 | hit rate 1.2% among 51,000 | Potency, µM; in the data active means potency below about 11 µM; inconclusive means mostly about 12 µM to 25 µM; inactive means weaker than that;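 the screen sought inhibitors and activators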;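 further: potency means the concentration at half of the fitted maximal effect; scaled between full activation by ribose 5 phosphate and full inhibition by luteolin; about four in five hits inhibit and the cells do not say which; series up to 57 µM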
# * hit, by the source's call; i = inactive; ? = inconclusive; / = no result given. Only part of the results is shown, so the mix of outcomes need not match the whole.
TsaE inh	Bst PK mod	molecule
i	>57	Cc1cc(=O)n2nc(N3CCCC(C(=O)NCCC4=CCCCC4)C3)sc2n1 (stereo not drawn)
i	>57	Cn1ncc(C#N)c1/N=C/N(Cc1ccccc1)Cc1ccccc1
i	/	Cc1c(C(=O)O)oc2c1ccc1ccccc12
i	>57	O=C(Nc1nnc(C2CC2)s1)c1cccc(S(=O)(=O)N2CCc3ccccc32)c1
i	>57	O=C(Nc1ccccc1)N1C(=O)C2(OCCO2)c2ccccc21
i	>57	Brc1ccc(CSc2nnc(-c3ccccn3)n2Cc2ccco2)cc1
i	>57	CC(=O)C1=C(C)NC(=O)NC1c1ccccc1 (stereo not drawn)
i	/	O=C(NCc1csc(-c2ccccc2)n1)c1ccco1
i	/	O=c1c(-c2cccs2)nc2cncnc2n1C1CC1
i	>57	COCCn1c(N)c(C(=O)Nc2sc3c(c2C(=O)OC)CCCC3)c2nc3ccccc3nc21
i	>57	Cc1noc(C)c1CSc1nnc(-c2ccncc2)n1-c1cccc(Cl)c1C
i	/	CN(C)C(=O)[C@@H]1C[C@H]1[C@@H](NC(=O)OCc1ccccc1)c1ccccc1
i	>57	CN(C)S(=O)(=O)Nc1ccccc1C(N)=O
i	>57	Cc1ccc(Nc2nc(N)nc(CSc3nnnn3-c3ccccc3)n2)cc1
i	/	CC(C)(C)NC(=O)CC(CC(=O)O)c1ccccc1 (stereo not drawn)
i	>57	Cn1c(=O)c2c(nc(Sc3n[nH]c(N)n3)n2Cc2ccccc2Cl)n(C)c1=O
i	/	O=C(O)[C@H]1O[C@H]1C(=O)O
i	/	C=CCSC1=C(C#N)C(c2ccccc2Cl)CC(=O)N1 (stereo not drawn)
i	>57	O=C(CCN1CCN(CCC(=O)c2ccccc2)CC1)c1ccccc1
i	/	CCOC(=O)Cn1c(=O)oc2cc(S(=O)(=O)Nc3c(C)cc(C)cc3C)ccc21
i	>57	COc1ccc(N(Cc2cc3ccc(C)cc3[nH]c2=O)C(=O)c2ccco2)cc1
i	>57	Cc1nc2cc(-c3ccc(F)cc3)nn2c(N2CCOCC2)c1C
i	>57	COc1cc(C2N(c3ccc(Cl)c(Cl)c3)C(=O)C3CCCN32)cc(OC)c1OC (stereo not drawn)
i	>57	Cc1nn(-c2ccccc2)c(CC(C)(C)C(=O)O)c1C(=O)O
i	>57	COc1cc2c(C(=O)N3CCCc4ccccc43)cn(C)c(=O)c2cc1OC
i	>57	OCCN1CCN(c2ncnc3c2sc2nc(N4CCOCC4)c4c(c23)CCC4)CC1
i	>57	COc1ccc(S(=O)(=O)N(CC(=O)NCc2ccco2)C2CCCCC2)cc1OC
i	>57	CCOC(=O)c1c(NC(=O)CCC(=O)NCc2ccco2)sc2c1CCCC2
i	/	CCCC=O
i	>57	CC(C(=O)N1CCc2ccccc21)N1CCc2ccccc2C1 (stereo not drawn)

# Taken from above.
# COc1cc(C2N(c3ccc(Cl)c(Cl)c3)C(=O)C3CCCN32)cc(OC)c1OC (stereo not drawn) @ Bst PK mod: >57
# O=C(Nc1nnc(C2CC2)s1)c1cccc(S(=O)(=O)N2CCc3ccccc32)c1 @ Bst PK mod: >57

# The list goes on.
TsaE inh	Bst PK mod	molecule
i	/	N#Cc1cn(CC(=O)NCC2CCCO2)c2ccccc12 (stereo not drawn)
i	>57	CN(C(=O)C1CCOC1)c1nnc(-c2ccncc2)s1 (stereo not drawn)
i	>57	Cc1ccc(C(=O)CCNc2ccccc2)o1
i	>57	Cc1cc2cc(CNC(=O)c3cc4ccccc4o3)ccc2n1C
i	>57	Cc1cc2c(c(=O)n1CC1CCCO1)C(c1ccco1)C(C#N)=C(N)O2 (stereo not drawn)
i	/	N#C/C(C(=O)c1ccccc1)=C1/CCCCCN1
i	/	CCOC(=O)Cc1nnn(CC(=O)OCC)n1
i	/	CCCCOCCCNC(=O)C1CCCCC1
i	>57	CC(=O)Oc1ccc(NC(=O)C2CCCCC2)c(C(=O)O)c1
i	>57	Cc1occc1-c1nnc(SCC(=O)c2ccc(F)cc2)o1
i	>57	O=C(NC1CCCCC1)NC1CCN(S(=O)(=O)c2ccc3c(c2)OCCO3)CC1
i	>57	O=c1[nH]c(C2CCCN(S(=O)(=O)c3ccccc3)C2)nc2c1nnn2Cc1ccccc1F (stereo not drawn)
i	>57	CCc1ccc2[nH]c(=O)c(C(c3nnnn3CCOC)N3CCN(c4ccccc4)CC3)cc2c1 (stereo not drawn)
i	>57	O=S(=O)(c1cccc(S(=O)(=O)N2CCN(c3ncccn3)CC2)c1)N1CCOCC1
i	>57	COc1ccc2[nH]c(=O)c(CN(C3CCCCC3)C(c3nnnn3Cc3ccco3)C(C)C)cc2c1 (stereo not drawn)
i	>57	CC(=O)c1c(C)nn(CC(O)COc2ccc3c(c2)CCC3)c1C (stereo not drawn)
i	11*	NC(=O)C1CCN(c2oc(-c3ccccc3F)nc2S(=O)(=O)c2ccc(Cl)cc2)CC1
i	/	Cc1ccccc1OCCn1nc(C(=O)O)c2ccccc2c1=O
i	>57	COc1ccc(-n2nnc3c(=O)n(CC(=O)NCC4CCCO4)cnc32)cc1 (stereo not drawn)
i	>57	Cc1ccc2cc(CN(Cc3ccco3)C(=O)c3ccccc3)c(=O)[nH]c2c1C
i	>57	O=C(CC1CCCCC1)NCc1cn2ccsc2n1
i	/	CCOC(=O)CNS(=O)(=O)CCN1C(=O)c2ccccc2C1=O
i	/	CCN(CC)CCOCCOC(=O)C1(c2ccccc2)CCCC1
i	>57	O=C(Nc1ccc(-n2nncc2-c2ccco2)cc1)c1ccc(F)cc1
i	>57	CCOC(=O)c1[nH]c(COC(=O)C2CC(=O)N(Cc3ccccc3)C2)c(C(=O)OCC)c1C (stereo not drawn)
i	>57	Cn1c(=O)cc(OCC(=O)NCc2ccccn2)c2ccccc21
i	>57	NC(=O)c1ccc(OCC(F)(F)C(F)(F)C(F)(F)C(F)(F)C(F)(F)C(F)F)cc1
i	>57	CC1CCCC(NC(=O)c2cn(C)c3ccc(S(=O)(=O)N4CCCC4)cc3c2=O)C1C (stereo not drawn)
i	>57	CCS(=O)(=O)c1ccc2oc(SCC(=O)c3ccco3)nc2c1
i	>57	Cc1ccccc1-c1nc(CN2CCCC(C(=O)NCc3cccnc3)C2)c(C)o1 (stereo not drawn)

# Compound profiles, from the list above:
# C=CCSC1=C(C#N)C(c2ccccc2Cl)CC(=O)N1 (stereo not drawn) across the screens: TsaE inh: i; Bst PK mod: /
# O=C(CCN1CCN(CCC(=O)c2ccccc2)CC1)c1ccccc1 across the screens: TsaE inh: i; Bst PK mod: >57

# Other results follow:
TsaE inh	Bst PK mod	molecule
/	>26	CO[C@H]1C=CO[C@@]2(C)Oc3c(C)c(O)c4c(O)c(c(C=NN5CCN(C)CC5)c(O)c4c3C2=O)NC(=O)C(C)=CC=C[C@H](C)[C@H](O)[C@@H](C)[C@@H](O)[C@@H](C)[C@H](OC(C)=O)[C@@H]1C
i	/	Cc1cc(C)n(-c2nc3ccccc3nc2Nc2ccc(CC(=O)O)cc2)n1
i	>57	CCn1c2ccccc2c2cc(NC(=O)CCCN3C(=O)CCC3=O)ccc21
i	>57	CC(C)OP(=O)(c1ccc(N(C)C)cc1)C(O)c1ccccc1F (stereo not drawn)
i	>57	CCN(CC)c1nc(N)c2c(N)n(-c3ccccc3C)c(=S)c(C#N)c2c1C#N
i	/	CC(=O)N1CCC2(CCCN(Cc3cc(C(F)(F)F)cc(C(F)(F)F)c3)C2)CC1
i	>57	CCOC(=O)CCC(=O)N1CCOCCN(C(=O)CCC(=O)OCC)CCOCC1
i	>57	CCOc1ncccc1C(=O)OCC(=O)N1CCN(S(=O)(=O)c2ccccc2)CC1
i	/	COc1ccc(NC(=O)c2c(-c3ccccc3)noc2C)c(OC)c1
i	>57	Cn1c(=O)c2c(nc(CN3CCOCC3)n2CCN2CCOCC2)n(C)c1=O
i	>57	CC(C)CCNC(=O)NC(=O)CN1C(=O)NC2(CCCCC2)C1=O
i	/	COC(=O)c1c(C)nc(C)c2c(=O)oc3ccccc3c12
/	>11	CC(=O)O[C@]1(C(C)=O)CC[C@H]2[C@@H]3C=C(Cl)C4=CC(=O)CC[C@]4(C)[C@H]3CC[C@@]21C
i	>57	CCCNC(=O)NC(=O)CSc1ncc(C(F)(F)F)cc1Cl
i	>57	Nc1c(C(=O)NCC2CCCO2)c2nc3ccccc3nc2n1-c1ccccc1 (stereo not drawn)
i	>57	Cc1cc(CNC(=O)Cc2c(F)cccc2Cl)nn1C
i	>57	COC(=O)c1ccccc1OC(=O)c1ccc(Br)o1
i	/	CN(C)c1ccc(N=NS(=O)(=O)O)cc1
i	>57	CCCn1c(=O)c2ccccc2n2c(SCC(=O)/C(C#N)=C(\C)N)nnc12
i	/	CCN(CC)C(=O)CSc1nc(O)cc(=O)n1-c1ccccc1OC
i	>57	CCOC(=O)N1CCN(C(=O)C(NS(=O)(=O)c2cccc3nsnc23)c2ccccc2)CC1 (stereo not drawn)
i	>57	COc1ccc(CCNC(=O)c2sc(=S)n(C)c2N)cc1
i	>57	CC(=O)OC(C(=O)NCc1ccco1)c1cccnc1 (stereo not drawn)
i	>57	COC(=O)c1ccc(CSc2nnc3sc4ccccc4n23)o1
i	/	CCOc1ccc(N(CC(=O)NCc2ccco2)S(=O)(=O)c2ccc(OC)c(OC)c2)cc1
i	/	c1ccc(-c2nn3c(-c4ccncc4)nnc3s2)nc1
i	?	COc1ccc(Cl)cc1CSc1n[nH]c(C)n1
/	>26	NC(=O)C1CCN(CCC(=O)Nc2ccc(Br)cc2)CC1
i	>57	COC(=O)CCc1c(C)c(C(=O)c2ccco2)c2ccccn12
i	/	CCOc1ccccc1NC(=O)C1CCCN(S(=O)(=O)c2cccc3cccnc23)C1 (stereo not drawn)
i	>57	O=C(CN1C(=O)c2ccccc2S1(=O)=O)N1CCN(c2cccc(Cl)c2)CC1
i	>57	CC(=O)Nc1ccc(S(=O)(=O)N(C)CC(=O)Nc2ccccc2N2CCOCC2)cc1
i	>57	COc1cc2c(cc1OC)-c1cc(N3CCCc4ccccc43)nc(=O)n1CC2
i	/	CSc1nnc(Cn2c(=O)sc3ccccc32)n1-c1ccccc1
i	>57	Cc1ccc(-n2nc(C(=O)NCc3ccco3)c3c4ccccc4n(C)c3c2=O)cc1
i	/	CC1=C(C(N)=O)C(c2ccccc2)n2nc(-c3cccc(C)c3)nc2N1 (stereo not drawn)
i	>57	CCOC(=O)CSC1=C(C#N)C(c2ccccc2OCC)C(C#N)C(=O)N1 (stereo not drawn)
i	>57	O=C(C1Cc2ccccc2CN1S(=O)(=O)c1ccc(F)cc1)N1CCCCCC1 (stereo not drawn)
i	>57	COc1ccc2c(-c3ccccc3)cc3nnnn3c2c1
i	>57	O=C(N1CCN(CCO)CC1)N1c2ccccc2C=Cc2ccccc21
i	>57	O=C1CC(C(=O)Nc2ccccc2)C2(CCCC2)O1 (stereo not drawn)
/	>11	CCC1(C)Cc2c(C#N)c(N)sc(=S)c2CO1 (stereo not drawn)
i	/	COCCn1c(=O)c(-c2ccccc2)nc2cnc(Oc3cccc(Cl)c3)nc21
i	/	CC(C)(C)C(=O)OCOC(=O)[C@@H]1N2C(=O)[C@@H](NC(=O)[C@H](N)c3ccccc3)[C@H]2SC1(C)C
i	>57	COc1ccc(S(=O)(=O)N(CCN2CCOCC2)Cc2cc(OC)ccc2OC)cc1
i	>57	CCOc1ccc(CCNC(=O)C2CCN(c3nn4c(=O)cc(C)nc4s3)CC2)cc1
i	?	CCOc1ccccc1C1CC(=O)NC(SCC)=C1C#N (stereo not drawn)
i	/	ClCCCl
i	>57	CC(C)[C@H](NC(=O)NCCc1ccc(F)cc1)C(=O)O
i	>57	CCOc1ccc(NC(=O)C2CC(=O)N(C(C)C)C2)cc1 (stereo not drawn)
i	>57	NC(=O)C1CCN(Cc2nnnn2Cc2ccco2)CC1
i	>57	Cn1c(=O)c2c(nc(Br)n2Cc2c(F)cccc2Cl)n(C)c1=O
i	>57	COc1ccc(C)cc1NC(=O)c1ccc(NC(=O)CC2SC(N3CCCC3)=NC2=O)cc1 (stereo not drawn)
i	/	N#CC(=C1SC=CS1)c1nc(-c2ccccc2)cs1
/	>26	CCc1cc(=O)oc2cc(C)c(CN3CCCC(C)C3)c(O)c12 (stereo not drawn)
i	/	Brc1ccc(-c2nnc3sc(CNCc4ccc5c(c4)OCO5)cn23)cc1
i	>57	CCN(CC)S(=O)(=O)c1ccc(-c2nnc(SCc3nnc(-c4ccccc4)o3)o2)cc1
i	>57	CC(C)CC(c1nnnn1Cc1ccccc1)N1CCN(C(=O)c2ccco2)CC1 (stereo not drawn)
i	>57	Cc1cc(N2C(=O)C3C4C=CC(C4)C3C2=O)no1 (stereo not drawn)
i	>57	COc1cc2nc(SCC(=O)NC3CC3)n(CCC3=CCCCC3)c(=O)c2cc1OC

# Gathered by group: the entries above containing a thiophene ring, fused or not
TsaE inh	Bst PK mod	molecule
i	/	O=c1c(-c2cccs2)nc2cncnc2n1C1CC1
i	>57	COCCn1c(N)c(C(=O)Nc2sc3c(c2C(=O)OC)CCCC3)c2nc3ccccc3nc21
i	>57	OCCN1CCN(c2ncnc3c2sc2nc(N4CCOCC4)c4c(c23)CCC4)CC1
i	>57	CCOC(=O)c1c(NC(=O)CCC(=O)NCc2ccco2)sc2c1CCCC2

# By substructure: those above containing a CF3 group (2)
TsaE inh	Bst PK mod	molecule
i	/	CC(=O)N1CCC2(CCCN(Cc3cc(C(F)(F)F)cc(C(F)(F)F)c3)C2)CC1
i	>57	CCCNC(=O)NC(=O)CSc1ncc(C(F)(F)F)cc1Cl
